UCH37 inh – inhibitors of human deubiquitinating enzyme UCH37; purified proteasome/UCH37, Ub-AMC cleavage fluorescence; inhibition, % (no concentration beside the values); hit rate 0.33% among 330,000;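 active means mean of two replicates above 20%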;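 further: 0% = compound-free wells with enzyme and 100% = wells lacking proteasome; stock transfer was 100 nL into about 20 µL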
Target sequence (Q9Y5K5 whole entry, looked up): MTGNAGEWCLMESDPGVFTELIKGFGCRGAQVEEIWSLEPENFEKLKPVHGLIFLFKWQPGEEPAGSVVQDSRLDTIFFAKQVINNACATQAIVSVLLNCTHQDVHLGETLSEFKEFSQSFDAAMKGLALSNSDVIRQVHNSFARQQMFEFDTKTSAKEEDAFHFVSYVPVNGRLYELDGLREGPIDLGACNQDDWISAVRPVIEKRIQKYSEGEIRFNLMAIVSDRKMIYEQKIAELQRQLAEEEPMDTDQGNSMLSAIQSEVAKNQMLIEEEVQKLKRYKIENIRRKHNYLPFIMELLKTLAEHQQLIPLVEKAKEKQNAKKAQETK
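assay system = human UCH37 enzyme supplied as purified proteasome complex | amount = proteasome at 0.15 nM in the dispensed enzyme solution | schedule = 30 min compound-proteasome preincubation then 25 min substrate reaction, room temperature | measured by = fluorescence, ex 355 nm, em 460 nm | benchmarks = no-proteasome wells (full inhibition) and compound-free wells (no inhibition)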
B2AR ag – human beta-2 adrenergic receptor agonism by FAP. P07550. Am2.2-beta2AR cells, FAP receptor internalization, flow cytometry; reference of the scale not given here. hit rate 0.43% among 340,000. response, % (test concentration not listed);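 active means response above a set limit, near 3 SD of response in nonfluorescent compounds, cut at about 42% in these data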;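 further: stock transfer was 100 nL into about 11 µL; a reference agonist was the positive control; negative values mostly stem from fluorescent compounds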
Ecoli growth – inhibitors of Escherichia coli growth; AID 1053175; OD600 absorbance (no concentration beside the values); OD600, 23 h; active compounds read low; hit rate 0.21% among 330,000;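 active means OD600 absorbance below the run mean of sample wells minus 3.6 SD, in any replicate, cut at about 0.56 in these data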;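 further: stock transfer was 300 nL into about 60 µL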
FGF22 binding – shifts melting point of recombinant human FGF22; Q9HCT0; hit rate 1.5% among 340,000; calls only at 9.99 µM; recombinant FGF22 thermal shift, SYPRO orange fluorescence; percent of sucrose octasulfate shift, DMSO zero;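 active means melting point raised past a set limit in the mean and every replicate; three in four hits are not shown here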
HNF4A DNA FP – change in binding of human HNF4 alpha to DNA; hit rate 0.3% among 360,000; HNF4a-FITC DNA binding, fluorescence polarization, 1 h; activity change, % at 10 µM; AID 1224865; in the data active means activity change above about 30%, passing the limit was not always enough;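 further: controls were the assay level and a saturating level of protein; the project sought stronger binding though the title names inhibitors; some compounds called inactive have numbers as strong as hits; positive values seem to mean higher polarization but the record does not say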
Target sequence (P41235 whole entry, looked up): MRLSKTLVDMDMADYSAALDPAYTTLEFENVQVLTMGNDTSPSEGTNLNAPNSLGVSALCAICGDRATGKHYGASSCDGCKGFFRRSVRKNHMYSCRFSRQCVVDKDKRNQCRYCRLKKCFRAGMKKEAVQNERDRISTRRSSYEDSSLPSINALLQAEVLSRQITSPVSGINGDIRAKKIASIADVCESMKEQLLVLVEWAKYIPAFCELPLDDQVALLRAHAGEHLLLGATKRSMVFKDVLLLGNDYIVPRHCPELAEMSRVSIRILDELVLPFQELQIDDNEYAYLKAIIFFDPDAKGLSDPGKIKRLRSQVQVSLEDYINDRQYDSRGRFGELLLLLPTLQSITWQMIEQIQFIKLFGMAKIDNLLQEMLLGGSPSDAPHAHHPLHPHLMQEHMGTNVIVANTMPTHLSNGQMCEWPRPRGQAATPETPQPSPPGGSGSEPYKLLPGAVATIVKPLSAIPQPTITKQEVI
ALR H2O2 inh – inhibitors of human sulfhydryl oxidase ALR. P55789. purified ALR, DTT oxidation, H2O2 HRP-luminol luminescence. inhibition, % (no concentration beside the values). hit rate 3.8% among 290,000. AID 485317;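 active means mean and each replicate at 75% or more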;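 further: stock transfer was 7.5 nL into about 7.5 µL; 0% = neutral wells and 100% = wells with inactivated enzyme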
Target sequence (P55789 whole entry, looked up): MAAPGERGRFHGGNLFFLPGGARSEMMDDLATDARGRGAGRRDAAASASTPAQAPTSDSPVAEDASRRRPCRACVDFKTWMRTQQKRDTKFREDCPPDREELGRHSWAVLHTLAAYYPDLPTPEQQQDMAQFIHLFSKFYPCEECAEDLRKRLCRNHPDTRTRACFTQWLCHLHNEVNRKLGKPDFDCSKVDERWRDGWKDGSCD
rRNA inh HTS – selective bacterial rRNA inhibition in E. coli. E. coli WT GFP vs humanized-ribosome RFP mutants, fluorescence, 24 h; active compounds read low; DMSO median 0, no signal -100. GFP signal change (wild-type ribosome), % (concentration not given with the values). hit rate 1.6% among 350,000;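 active means significant combined selectivity score with lowered wild-type GFP, culture density cut under 30%, mutant RFP and density less affected; inactive means any of these conditions unmet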; further: one replicate is shown; some compounds called inactive have numbers as strong as hits
rRNA inh HTS OD600 – also measured in rRNA inh HTS; calls as there; OD600 change, %; measured here: OD600 growth;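 optical density of the mix in the first replicate; 0 = DMSO median and -100 = no signal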
rRNA inh HTS RFP – further read-out of rRNA inh HTS, marked with its call; RFP signal change, %; measured here: RFP humanized mutant strains;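 first replicate; 0 = DMSO median and -100 = no signal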
* marks the source's active call; other numbers are inactive results; i = inactive; nt = not tested or not shown; + = active, no number; & = joins results of further samples. The list is partial; the hit share may differ from the screen's.

SMILES	UCH37 inh	B2AR ag	Ecoli growth	FGF22 binding	HNF4A DNA FP	ALR H2O2 inh	rRNA inh HTS	rRNA inh HTS OD600	rRNA inh HTS RFP
COc1ccc(CCNC(=O)CCc2nnc(Cc3ccc4c(c3)OCO4)o2)cc1	-0.2	-1.1	0.705	i	1.8	-9.8	-4.4	-5.1	-1.3
COc1cc(NC(=O)N2c3ccccc3Sc3ccccc32)c(C(=O)O)cc1OC	4.6	4.0	0.665	i	1.9	99.1*	2.7	3.8	2.6
CCOc1ccc(S(=O)(=O)N2CCC(C(=O)NCC3CCCO3)CC2)cc1 (configuration not stated)	0.3	-4.4	0.688	i	-0.7	2.3	7.0	2.9	0.8
CCN1C(=O)C(Cc2nc3ccccc3c(=O)n2-c2ccccc2)c2ccccc21 (configuration not stated)	1.6	1.7	0.721	nt	2.2	-1.4	nt	nt	nt
O=C(CNC(=O)c1ccc2ccccc2c1)NCc1ccccc1F	-1.7	-4.4	0.698	i	-2.4	1.4	4.1	-16.9	2.1
COc1cccc(OC)c1C(=O)Nc1ccccc1Sc1ccccc1	2.9	0.9	0.641	i	0.8	37.4	-23.4	-30.9	0.0
CSc1cccc(N2CC(C(=O)N(CC(C)C)c3c(N)n(Cc4ccccc4)c(=O)[nH]c3=O)CC2=O)c1 (configuration not stated)	1.1	-0.9	0.651	i	0.1	-2.1	-1.5	2.6	-0.3
O=C(N[C@@H](Cc1c[nH]c2ccccc12)C(=O)O)c1ccccc1Cl	4.2	3.0	0.692	i	-0.2	-3.0	14.9	10.0	-2.4
CCN(Cc1ccccc1)S(=O)(=O)c1ccc(OC)c2ncccc12	1.7	-12.1	0.725	i	3.8	nt	-24.6	-25.0	-8.5
COc1cc(C(=O)N(C)C2CCCCC2)cc(OC)c1OC	nt	nt	nt	i	4.7	nt	3.8	-9.1	-0.2
COC(=O)C1(C)NC(c2ccc(O)cc2)C2C(=O)N(c3ccccc3)C(=O)C21 (configuration not stated)	0.7	6.2	0.67	i	1.4	nt	8.0	8.3	0.4
CC1(C)C2CC[C@]3(C)C(CC=C4[C@@H]5C[C@@](C)(CO)[C@@H]6C[C@@]5(CC[C@]43C)C(=O)O6)[C@@]2(C)CC[C@@H]1O (some centres not stated)	-0.3	nt	0.749	nt	nt	-10.2	nt	nt	nt
O=C(O)Cc1csc(-c2cccc(Oc3ccccc3)c2)n1	2.3&1.7	-5.4&-3.4	0.659&0.688	i	-2.3&-0.5	-3.6&-0.2	-13.2&-18.2	-12.2&-18.4	9.3&8.0
Cc1ccc(NC(=O)CSc2nnc(C)c(=O)n2N)cc1	3.4	4.9	0.716	i	-3.3	4.9	8.5	1.4	0.8
CC(C)c1[nH]nc2c1C(c1cccc(OC(=O)N3CCOCC3)c1)C(C#N)=C(N)O2 (configuration not stated)	-2.0	9.0	0.723	nt	2.5	30.5	nt	nt	nt
COc1ccc(-n2cnnc2SC(C)C(=O)Nc2cccc([N+](=O)[O-])c2)cc1 (configuration not stated)	1.6	4.8	0.694	nt	1.2	-6.6	nt	nt	nt
CC(C)C[C@H](NC(=O)c1nc[nH]c1C(=O)NCC(=O)OCc1ccccc1)C(=O)OCc1ccccc1	5.0	0.4	nt	i	-3.0	-3.0	6.9	-0.8	8.7
O=C(OCc1ccccc1)N1CCC2CC1c1cc(Cl)ccc12 (configuration not stated)	nt	4.5	nt	i	1.7	nt	-18.6	-30.4	-4.1
C/C(=N\NC(=O)C(O)c1ccccc1)c1ccc(C)s1 (configuration not stated)	nt	1.4	nt	i	6.5	-8.3	-2.1	-15.6	-1.0
O=C(Nc1ccc(F)cc1)c1cccnc1	4.3	-5.3	0.701	i	-2.7	-6.7	7.6	8.4	-0.5
O=C(CSc1nc(-c2ccco2)cc(C(F)(F)F)n1)Nc1ccc2c(c1)OCO2	3.3	-25.0	0.738	nt	-0.7	-5.2	nt	nt	nt
CCOC(=O)CCCCNC(=O)Nc1ccccc1	2.5	-3.1	0.692	i	2.6	nt	-0.4	0.7	-4.4
N#CCCN(Cc1ccccc1)C(=O)Nc1ccc2c(c1)CCO2	0.9	-3.5	0.65	i	-5.7	-0.3	-1.5	-8.7	-0.9
C=CCOc1ccc(/C=N/NC(=O)C(=O)Nc2ccccn2)cc1OC	nt	-2.9	nt	i	1.3	-5.2	5.7	7.5	-1.8
CSC1=NSC2=NC(=O)/C(=C\c3coc4ccccc4c3=O)C(=N)N12	-11.6	-9.5	0.654	nt	47.7	97.4*	-1.8	-4.8	7.7
COc1ccc(NC(=O)COC(=O)CNC(=O)c2cccs2)cc1Cl	-0.2	10.2	0.619	i	-1.4	-1.1	nt	nt	nt
Fc1ccc(C2c3[nH]c4ccccc4c3CCN2Cc2ccoc2)cc1 (configuration not stated)	-13.0	1.0	0.631	i	-2.4	nt	-54.0	-73.9	-18.1
O=C1c2ccccc2C(=O)C1c1ccccn1	9.2	-8.4	0.649	i	1.7	5.3	-4.0	-2.0	-1.6
CC1(C)CC(=O)C2=C(C1)OC(N)=C(C#N)C2c1cn(-c2ccccc2)nc1-c1ccccc1 (configuration not stated)	5.4	-2.4	nt	nt	0.7	3.8	nt	nt	nt
O=C(NNC(=S)NC(=O)c1ccco1)c1ccc(NC(=O)c2ccccc2)cc1	1.9	3.8	0.575	i	5.3	-40.9	-30.1	-35.6	-5.0
CCOP(=O)(OCC)c1nc(Cc2ccccc2)oc1NCc1ccccc1	5.3	12.6	0.685	i	-0.5	-4.5	-22.7	-16.5	7.9
CCN(CC(=O)Nc1ccc(NC(C)=O)cc1)Cc1c(O)ccc2cc(Br)ccc12	1.5	-2.3	0.65	i	-2.3	-39.7	-8.4	-6.2	-0.7
CC(C)CN1C(=O)CSCC1(C)C(=O)NCc1ccccc1 (configuration not stated)	nt	nt	nt	i	-2.7	nt	19.4	7.6	2.2
CN(C)S(=O)(=O)N1CCN(C(=O)N2CCOCC2)CC1	2.3	10.4	0.671	nt	-1.5	-5.0	nt	nt	nt
Nc1nonc1C(=O)NCCNCc1ccccc1OCc1ccc(F)cc1	2.3	-10.5	0.635	i	2.6	-1.8	-9.6	-5.5	-0.3
Cc1ccc(OCC(=O)NCCc2c[nH]c3ccccc23)cc1	2.7	0.1	0.646	i	-1.0	nt	-15.5	-4.5	4.0
CC1CC(C)(C)C2=NCCN21 (configuration not stated)	nt	nt	nt	i	-0.2	nt	5.0	9.9	-4.4
Cc1ccc(NCc2nnc(SCC(=O)c3ccc4c(c3)OCCO4)o2)c(C)c1	-0.3	4.2	0.669	i	-0.7	-3.0	-35.9*	-15.8*	-2.6*
CN(C)C(=S)NCc1ccccc1	2.2	5.3	0.749	nt	-3.7	-4.4	nt	nt	nt
CCc1ccccc1-n1nnnc1-c1cnccc1C(F)(F)F	5.8	0.1	0.712	i	1.1	-5.0	-4.5	-5.4	-1.3

Random excerpt: 4 entries already listed.
SMILES	UCH37 inh	B2AR ag	Ecoli growth	FGF22 binding	HNF4A DNA FP	ALR H2O2 inh	rRNA inh HTS	rRNA inh HTS OD600	rRNA inh HTS RFP
CN(C)C(=S)NCc1ccccc1	2.2	5.3	0.749	nt	-3.7	-4.4	nt	nt	nt
CCOC(=O)CCCCNC(=O)Nc1ccccc1	2.5	-3.1	0.692	i	2.6	nt	-0.4	0.7	-4.4
CN(C)S(=O)(=O)N1CCN(C(=O)N2CCOCC2)CC1	2.3	10.4	0.671	nt	-1.5	-5.0	nt	nt	nt
O=C(NNC(=S)NC(=O)c1ccco1)c1ccc(NC(=O)c2ccccc2)cc1	1.9	3.8	0.575	i	5.3	-40.9	-30.1	-35.6	-5.0

Continuation:
SMILES	UCH37 inh	B2AR ag	Ecoli growth	FGF22 binding	HNF4A DNA FP	ALR H2O2 inh	rRNA inh HTS	rRNA inh HTS OD600	rRNA inh HTS RFP
CCc1nnc(NC(=O)CSc2ncnc3c2oc2ccccc23)s1	6.5	14.0	0.777	i	16.5	14.3	5.6	11.9	-1.4
CN(Cc1ccccc1)c1nccn2ccnc12	nt	nt	nt	i	-0.8	nt	4.4	6.4	0.7
COc1ccc(C(=O)N/N=C2\CCS(=O)(=O)c3ccc(F)cc32)cc1OC	nt	-8.5	nt	i	2.3	-0.5	6.4	4.7	4.9
COc1ccccc1N(CC(=O)NC1CCCCC1C)S(=O)(=O)c1cccs1 (configuration not stated)	-1.2	-2.2	0.725	i	1.4	-9.0	15.1	11.6	1.1
CCOC(=O)c1ccc(N2C=C(C(=O)OC)C(c3cccc(O)c3)C(C(=O)OC)=C2)cc1	-119.6	4.8	0.667	i	5.3	-26.5	4.6	0.7	1.5
COc1ccc(-c2csc3ncnc(N4CCN(c5ccccc5)CC4)c23)cc1	0.7	14.6	0.694	i	0.7	-6.9	-7.7	-2.9	0.4
COc1ccc(CC(=O)NCC2CCCN(Cc3ccc(OC(F)(F)F)cc3)C2)cc1 (configuration not stated)	nt	0.3	nt	i	-0.9	nt	nt	nt	nt
N/C(=N\OC(=O)Nc1ccccc1)c1cccc(C(F)(F)F)c1	5.8	2.0	0.715	i	-0.3	-7.7	-8.1	-10.9	-5.2
CC(=O)OCCNc1cc(SCc2ccco2)c2nonc2c1[N+](=O)[O-]	10.7	22.9	0.694	nt	-6.5	nt	nt	nt	nt
COc1cc(OC)cc(-c2cc3nc(C)c(CCC(=O)O)c(=O)n3[nH]2)c1	-10.0	-1.9	0.739	i	-0.7	17.0	2.5	12.1	0.9
COc1cc(C)c(NC(=S)NCCCN2CCOCC2)cc1OC	1.0	7.5	0.713	nt	0.4	-15.6	20.7	11.8	2.2
O=C1NC[C@@H](CCCCN2C[C@H](Cc3ccc(O)cc3)N(Cc3ccccc3)C(=O)C2=O)N(CCc2ccc(O)cc2)C1=O	nt	nt	nt	i	-3.7	nt	-2.3	3.5	2.3
C/C(CC(=O)Nc1ccc([N+](=O)[O-])cc1)=N/NC(=O)C1C2CCCCC21 (configuration not stated)	nt	0.0	nt	i	-1.4	3.4	5.4	4.4	1.1
CCCNC(=O)c1cccc(NC(=O)C(C)C)c1	2.2	-0.5	0.682	i	-1.1	-10.7	3.9	7.6	1.3
CN(Cc1ccc(Cl)c(Cl)c1)C(=O)c1[nH]c(C(F)(F)F)nc1-c1ccccc1	nt	nt	nt	i	0.2	nt	-46.5	-65.8	-15.9
CCOC(=O)c1c(NCc2ccc3c(c2)OCO3)c2ccccc2[nH]c1=O	2.7	0.4	0.736	nt	-0.1	-0.6	nt	nt	nt
c1cnn2c(-c3ccc4c(c3)CCO4)cnc2c1	nt	nt	nt	i	-4.1	nt	2.1	0.1	-1.0
Cc1ccc(S(=O)(=O)N2C[C@H]3C(=O)C[C@@H]4C(=O)N(c5ccccc5)C(=O)[C@@H]4[C@@H]3C[C@H]2c2cccs2)cc1	nt	nt	nt	i	-1.2	nt	8.4	6.7	0.4
COC(=O)C(C)Oc1cc(OC(C)C(=O)OC)c2c(C)c(Cl)c(=O)oc2c1 (configuration not stated)	-440.6	5.0	0.722	+	4.6	-16.5	nt	nt	nt
COc1ccc(NS(=O)(=O)c2cc(NC(=O)COc3ccccc3F)ccc2OC)cc1	1.5	-1.4	0.67	i	-3.4	-2.8	-0.6	-5.1	6.0
CCNC(=S)NNc1nncc2ccccc12	3.7	-1.4	0.715	i	4.5	98.6*	3.3	7.4	-2.2
O=C(NCCO)/C(=C\c1ccc2c(c1)OCO2)NC(=O)c1ccc(Br)cc1	6.5	-0.9	0.709	nt	0.6	-10.1	nt	nt	nt
O=C(CSc1nc2ccccc2n1CC(=O)N1CCCC1)Nc1ccc2c(c1)OCO2	5.8	-8.5	0.719	nt	-7.0	25.4	nt	nt	nt
